High-throughput results as filed in PubChem BioAssay.
NS1 inh: qHTS Assay for Inhibitors of Influenza NS1 Protein Function; 270,000 tested, 0.4% active; S. cerevisiae slowed by influenza A NS1, growth recovery by OD600; AID 2326, 2010; Potency, µM (doses to about 46.1 µM), for the others: top-dose activity, positive = more growth; active means well fitted rising curve with a large enough effect; inconclusive means small, poorly fitted or top-dose-only effect; inactive means no such curve, though single readings can be large or run the other way; also: nearly all actives have a fitted effect of over 50% in size
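Growth recovery, yeast-based: influenza A NS1 expressed in S. cerevisiae causes slow growth, and suppressors are detected by OD600. The parent strain without NS1 is used as positive control.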
Cruzain inh noDet: qHTS Assay for Promiscuous and Specific Inhibitors of Cruzain (without detergent). Cruzipain (Trypanosoma cruzi), P25779. purified cruzain, Z-FR-AMC fluorescence, no detergent. Potency, µM, for inactives: max response, negative = inhibition, usual class: inhibitors. 200,000 tested, 2.3% active;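 also: plate controls were enzyme without inhibitor for no effect and buffer without enzyme for full effect; nearly all actives have a fitted effect of over 40% in size; top concentration of the series not given in the record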
Target sequence (P25779 123-467 limits assumed): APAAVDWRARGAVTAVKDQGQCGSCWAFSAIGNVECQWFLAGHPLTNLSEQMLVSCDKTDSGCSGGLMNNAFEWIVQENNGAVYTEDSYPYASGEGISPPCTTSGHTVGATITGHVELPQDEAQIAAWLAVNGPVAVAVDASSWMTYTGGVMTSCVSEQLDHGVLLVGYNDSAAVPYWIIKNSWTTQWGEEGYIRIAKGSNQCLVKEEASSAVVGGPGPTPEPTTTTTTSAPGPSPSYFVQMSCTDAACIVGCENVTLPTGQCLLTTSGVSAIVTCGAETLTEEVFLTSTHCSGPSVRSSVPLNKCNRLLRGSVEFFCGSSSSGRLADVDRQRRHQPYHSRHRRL
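Purified cruzain at 1.5 nM, pre-incubated 15 min with compound at room temperature in 100 mM sodium acetate pH 5.5, 5 mM DTT, 0.00005% Triton X-100. Reaction started with 2 uM Z-FR-AMC; AMC fluorescence increase over 60 s gives rate.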
Cruzain inh Det: qHTS Assay for Promiscuous and Specific Inhibitors of Cruzain (with detergent); Cruzipain (Trypanosoma cruzi), P25779; purified cruzain, Z-FR-AMC fluorescence, 0.01% Triton; Potency, µM, for the others: max response, negative = inhibition, actives largely listed as inhibitors; 200,000 tested, 0.43% active;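 also: plate controls were neutral wells for no effect and buffer without enzyme for full effect; nearly all actives have a fitted effect of over 40% in size; top concentration of the series not given in the record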
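Detergent-containing arm of a paired screen for aggregation-based inhibition: 0.01% Triton X-100 present. Cruzain at 1.5 nM cleaved 2 uM Z-FR-AMC at pH 5.5 with 5 mM DTT; AMC fluorescence gain over 60 s measured activity.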
RE007 growth inh: qHTS Assay for Inhibitors of the HIV-1 protein Vpr | S. pombe RE007 Vpr strain, BacTiter-Glo ATP luminescence, 24 h; control for the full effect not named in the record | Potency, µM (highest dose often 92.2 µM), inactives show at the highest dose activity change, negative = less growth | 360,000 tested, 0.21% active; active = well fitted falling curve with a large enough effect; inconclusive = small, poorly fitted or top-dose-only effect; inactive = no such curve, though single readings can be large or run the other way;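 also: % is scaled to controls: 0 for no effect and ±100 for the full control effect; nearly all actives have a fitted effect of over 50% in size; the assay follows cell death caused by Vpr and the record does not say whether a fall means rescue or toxicity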
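Fission yeast strain RE007, carrying one chromosomally integrated HIV-1 vpr copy, was seeded at OD 0.01 in PMG+AL medium with 23 nL pinned compound. After 24 h at 30 °C and 99% humidity, viability was read by BacTiter-Glo luminescence.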
SARS PLP yeast: qHTS of Yeast-based Assay for SARS-CoV PLP | 330,000 tested, 0.19% active | Potency, µM (highest dose often 32.9 µM), for the others: at the top dose activity, positive = growth rescue | S. cerevisiae expressing SARS-CoV PLpro, growth rescue; control for the full effect not named in the record; active means well fitted rising curve with a large enough effect; inconclusive means small, poorly fitted or top-dose-only effect; inactive means no such curve, though single readings can be large or run the other way; also: 0% is about no effect; nearly all actives have a fitted effect of over 55% in size; growth read by luminescence after 48 h
Lassa entry inh: qHTS for Inhibitors of binding or entry into cells for Lassa Virus | 300,000 tested, 1.2% active | Lassa virus pseudotype entry inhibition, cell reporter; control for the full effect not named in the record | Potency, µM (highest dose often 37.9 µM), inactives show at the top dose activity change, negative = inhibition, usual class: inhibitors; active means well fitted inhibition curve with a large enough effect; inconclusive means small, poorly fitted or top-dose-only effect, or effect the other way; inactive means flat fitted curve, though single readings scatter; tested in HEK293 cells; also: % is scaled to controls: 0 for no effect and ±100 for the full control effect; nearly all actives have a fitted effect of over 50% in size; luciferase read-out
MARV entry inh: qHTS for inhibitors of binding or entry into cells for Marburg Virus; AID 540276, 2011; Potency, µM (top dose mostly 37.8 µM), inactives show at the highest dose activity change, negative = inhibition, most hits filed as inhibitors; 300,000 tested, 1.8% active; Marburg virus pseudotyped entry inhibition, cell reporter; control for the full effect not named in the record; about a third of the inactives were read at about 46 µM; active = well fitted inhibition curve with a large enough effect; inconclusive = small, poorly fitted or top-dose-only effect, or effect the other way; inactive = flat fitted curve, though single readings scatter; tested in HEK293 cells; about a fifth of its hits are not listed in these tables; also: % is scaled to controls: 0 for no effect and ±100 for the full control effect; luciferase read-out
StopGo reporter: High Throughput Screening for Foot and Mouth Disease Virus Antivirals; 410,000 tested, 1.2% active; human cells with a luciferase reporter of 2A StopGo recoding; control for the full effect not named in the record; Potency, µM (top dose mostly 57.9 µM), for inactives: top-dose signal change, negative = less light; active = well fitted falling curve with a large enough effect; inconclusive = small, poorly fitted or top-dose-only effect; inactive = no such curve, though single readings can be large or run the other way; tested in HEK293T cells; also: % is scaled to controls: 0 for no effect and ±100 for the full control effect; nearly all actives have a fitted effect of over 45% in size; luciferase light after 4 h
* = called active by the depositor; ? = inconclusive; nt = not tested or not shown; [ ] = dose if it differs, or a comment. Unless noted, calls follow the shape of the dose curve; as a rule, active = well fitted curve in the direction sought with a large enough effect; inconclusive = small, poorly fitted or top-dose-only effect, or another doubt; inactive = no such curve, though single readings can be large; an effect the other way counts as inactive or inconclusive. Potency is read from the fitted curve at half-maximal effect.

SMILES	NS1 inh	Cruzain inh noDet	Cruzain inh Det	RE007 growth inh	SARS PLP yeast	Lassa entry inh	MARV entry inh	StopGo reporter
COc1cc(NC(=O)NC(C)c2c(-n3cccc3)sc3c2CCCC3)cc(OC)c1OC (stereo not given)	nt	-7%	-2.6%	nt	nt	5%[46.1 µM]	3%[46.1 µM]	-19%
COc1cc(/C=C2\C(=O)N(C)C(=S)N2C)ccc1O	-9%	2%	-3.1%	1%	-4%	?	-36%	-9%
CCOC(=O)C1CCCN(C(=O)Cn2c(=O)cc(C)c3c(C)nn(C)c32)C1 (stereo not given)	nt	-10%	-2.0%	nt	nt	3%[46.1 µM]	nt	?
CC1CCN(S(=O)(=O)c2ccc(C(=O)NNC(=O)C3CC3)cc2)CC1	-1%	nt	nt	17%	0%	?	1%[46.1 µM]	-22%
Cn1c(=O)c2c(ncn2CC(=O)OCC(=O)Nc2ccc(F)cc2Cl)n(C)c1=O	nt	nt	nt	-9%	-1%	-3%	15%	-20%
O=[N+]([O-])c1ccc(N/N=C/c2cccc(O)c2)cc1	-81%	nt	nt	10%	-11%	3%[46.1 µM]	?	10%
COc1ccc(-c2nc(SCC(=O)Nc3ccc4c(c3)OCCO4)c(-c3ccccc3)[nH]2)cc1	nt	?	-5.4%	nt	nt	?	?	-7%
COc1ccccc1CNC(=O)C(C)n1c(=O)cc(C(F)(F)F)c2c(C)nn(C)c21 (stereo not given)	nt	3%	-1.4%	nt	nt	20%[46.1 µM]	nt	-24%
CCCNC(=O)COC(=O)c1cc2c(=O)n3ccccc3nc2s1	6%	-6%	-7.6%	-13%	3%	?	?	9%
O=C(COC(=O)C1=Cc2ccccc2OC1)NCc1ccco1	-2%	nt	nt	11%	0%	nt	nt	-4%
O=C(/C=C/c1ccccn1)c1ccc(Br)cc1O	-40%	?	-4.2%	?	-12%	16%	-2%	11%
CCc1ccc(C(=O)CN2C(=O)NC(C)(c3ccc(C)cc3)C2=O)cc1 (stereo not given)	nt	nt	nt	-10%	2%	-9%	0%	-2%
COc1ccc(CN(C(=O)c2nsc(Cl)c2Cl)C(C(=O)NC2CCCCC2)c2ccc(OC)cc2)cc1 (stereo not given)	8%	-2%	1.8%	-5%	-5%	?	15µM*	nt
Cc1cc(C)cc(OCC(=O)N2CCC(c3nc4ccccc4s3)CC2)c1	nt	27%	-11%	nt	nt	6%[46.1 µM]	-2%[46.1 µM]	0%
CN(C(=O)COC(=O)CNC(=O)c1ccc(C(C)(C)C)cc1)c1c(N)n(Cc2ccccc2)c(=O)[nH]c1=O	nt	nt	nt	-11%	-8%	?	?	-9%
COc1cc(CC(=O)Nc2ccc(N3CCOCC3)cc2)cc(OC)c1OC	nt	nt	nt	7%	0%	0%	4%[46.1 µM]	0%
COc1cccc(-c2nnc(NC(=O)c3cccs3)s2)c1	0%	nt	nt	-23%	1%	1%	?	24%
O=C(N/N=C/c1cccnc1)c1cc(-c2ccc(Br)cc2)nc2ccccc12	-31%	nt	nt	3%	-7%	?	?	-15%
COc1ccc(-c2ccc(N(C)C)cc2)cc1[C@H]1[C@@H]2C=CCC[C@@]2(C)C(=O)N1Cc1ccccc1	?	nt	nt	?	-4%	nt	nt	17%
Cc1nn(CC2CC2)c(=O)n1-c1cccc(Cl)c1	nt	nt	nt	-3%	7%	-9%	?	5%
O=C(COc1ccc(Oc2ccccc2)cc1)NCc1cn2ccccc2n1	nt	nt	nt	-29%	0%	?	?	?
CCNc1nc(SCC(=O)Nc2ccccc2)nc(N2CCOCC2)n1	5%	nt	nt	3%	2%	7%	-14%	-9%
CCC(C)/C=C(C)/C=C/C1=CC2=C(Cl)C(=O)C(C)(OC(C)=O)C(=O)C2=CO1 (stereo not given)	9%	nt	nt	-13%	5%	nt	nt	-3%
CN(C)S(=O)(=O)N1CCN(c2ccc([N+](=O)[O-])cc2)CC1	nt	nt	nt	-8%	-1%	9%[46.1 µM]	-1%[46.1 µM]	-6%
COc1ccc(NC(=O)CCNS(=O)(=O)c2ccc3c(c2)CC(C)N3C(=O)C2CC2)cc1 (stereo not given)	-1%	nt	nt	4%	-6%	nt	nt	12%
Nc1ccn(C2OC(COP(=O)(O)O)C(O)C2O)c(=O)n1 (stereo not given)	nt	nt	nt	17%	nt	-15%[46.1 µM]	?	-17%
CCc1cccc(CC)c1NC(=O)C1SC(=Nc2ccccc2C)C(c2nc3ccccc3s2)=C1N (stereo not given)	26%	6.3µM*	2.0%	3%	-9%	5%	?	-20%
Cc1ccc(O)c(NC(=O)C2CC(c3ccc(F)cc3)=NO2)c1 (stereo not given)	-11%	2%	-4.6%	2%	27%	-12%	15%	-4%
Cc1ccc(NNC(N)=S)cc1Cl	-95%	nt	nt	?	-5%	nt	nt	0%
CC(C)[C@@H]1C=C(C(=O)O)O[C@H](OCCCCO)C1	-4%	nt	nt	7%	-1%	nt	nt	-13%
CC(=O)Nc1cccc(NC(=O)CSc2nc(=O)n(CCN3CCOCC3)c3c2CCCC3)c1	nt	nt	nt	-16%	3%	?	15%	1%
OC(CNC1CCCc2ccccc21)COc1c(Cl)cccc1Cl (stereo not given)	-29%	-3%	1.6%	-2%	-13%	?	?	-27%
CC/C(O)=C1\C(=O)CC(c2ccccc2)CC1=NCCC(=O)O (stereo not given)	-4%	8%	0.2%	25%	-31%	0%	0%	-9%
CCOc1cc(NC(=O)Nc2ccc(F)cc2)c(OCC)cc1NC(=O)CC	-34%	nt	nt	1%	-5%	nt	nt	-8%
Cc1ccc(SC(C)C(=O)Nc2ncn[nH]2)cc1 (stereo not given)	?	2%	-5.0%	-1%	9%	nt	nt	-16%
O=C(CN1CCN(c2ncccn2)CC1)NCc1ccc2c(c1)OCO2	nt	nt	nt	3%	-1%	-19%	18%	17%
COc1ccc(OC)c(S(=O)(=O)Nc2ccc(-c3ccc4nncn4n3)cc2)c1	nt	nt	nt	2%	-3%	-14%	?	74%[activator]
COC(=O)Cc1nc(NC(=O)c2cccs2)sc1C	-7%	nt	nt	-4%	0%	4%	-3%	29%
CC(C)(C)NS(=O)(=O)c1ccc(OCC(=O)NCC2CCCO2)cc1 (stereo not given)	nt	nt	nt	10%	1%	-5%	11%[46.1 µM]	-17%
NS(=O)(=O)c1ccc(CCNCc2cccs2)cc1	4%	nt	nt	2%	0%	-5%	-1%[46.1 µM]	23%
O=C1CC(=O)N(CCc2ccccc2)C(=O)N1CCc1ccccc1	-58%	5%	-9.4%	3%	-1%	17%	-14%	-19%
Cc1ccc(C(=O)/C=C/c2cc(C#N)n(C)c2C)cc1	-1%	nt	nt	-30%	-4%	1%	-5%[46.1 µM]	-25%
O=C(NCCCN1CCOCC1)C1COc2ccccc2O1 (stereo not given)	18%	-9%	2.3%	20%	?	9%	9%	7%
CCc1nn(CCCC(=O)N2CCc3ccccc3C2)c(=O)c2cc3occc3n12	-6%	-13%	0.4%	6%	-6%	-7%	?	2%
NNC(=O)c1ccc(COc2cccc3ccccc23)o1	16%	nt	nt	5%	1%	nt	nt	-12%
CC(C)(C)n1nnnc1CN1CCC(NC(=O)NC2CCCCC2)CC1	-4%	1%	1.9%	17%	3%	?	9%	-21%
CCOc1ccc(S(=O)(=O)N2CCC(C(=O)NCc3ccncc3)CC2)cc1Cl	11%	nt	nt	-16%	1%	0%	-10%[46.1 µM]	-5%
CC(C)CCNC(=O)CCc1nnc(Cc2c[nH]c3ccccc23)o1	2%	nt	nt	-12%	-1%	nt	nt	12%
COc1ccc(CN2CCOCCOCCOCCOCCOCC2)cc1	1%	nt	nt	-3%	0%	-1%	27%	2%
CN(C)S(=O)(=O)c1ccc(N2CCCC2)c(C(=O)Nc2ccccc2Br)c1	nt	nt	nt	-10%	-8%	11%	3%[46.1 µM]	-14%
CCOC(=O)/C(=N\Nc1ccccc1[N+](=O)[O-])c1csc(N)n1	4%	nt	nt	-2%	-1%	nt	nt	-31%
Cn1c(=O)c2c(nc(NCCc3ccccc3)n2Cc2ccccc2)n(C)c1=O	-15%	9%	-4.7%	8%	-5%	?	7.3µM*	14µM*
C=CCc1ccc(OCc2ccc(C(=O)OC)o2)c(OC)c1	-10%	-1%	-4.6%	-29%	-1%	?	?	0%
CCOC(=O)c1[nH]c2ccc(C)cc2c1N=CN(CC)CC	-3%	-7%	-3.4%	-7%	4%	7%	21%	2%
COc1ccc([N+](=O)[O-])cc1NC(=O)COC(=O)Cc1cc(OC)c(OC)c(OC)c1	0%	?	-4.3%	nt	28%	0%	7%	?
CCN(CC(=O)Nc1ccccc1C(F)(F)F)C(=O)c1ccccc1OCc1ccc(F)cc1	nt	nt	nt	-1%	nt	2%	?	-6%
COc1cnc(-c2cccc(C(F)(F)F)c2)nc1OC	nt	nt	nt	-8%	-8%	-21%[46.1 µM]	27%[46.1 µM]	3%
CC(=O)c1sc(N/N=C\c2c(O)ccc3ccccc23)nc1C	nt	nt	nt	10%	nt	?	?	-6%

Retrieved one by one from the entries so far, 3 records:
SMILES	NS1 inh	Cruzain inh noDet	Cruzain inh Det	RE007 growth inh	SARS PLP yeast	Lassa entry inh	MARV entry inh	StopGo reporter
O=C(NCCCN1CCOCC1)C1COc2ccccc2O1 (stereo not given)	18%	-9%	2.3%	20%	?	9%	9%	7%
COc1ccc(CN2CCOCCOCCOCCOCCOCC2)cc1	1%	nt	nt	-3%	0%	-1%	27%	2%
C=CCc1ccc(OCc2ccc(C(=O)OC)o2)c(OC)c1	-10%	-1%	-4.6%	-29%	-1%	?	?	0%
